Screening results from PubChem BioAssay.
MT1-MMP reporter – inhibitors of MT1-MMP promoter transcription, cell-based, luciferase reporter, luminescence (AID 618) | actives 0.62% (n = 87,000) | MT1-MMP promoter luciferase reporter cells, luminescence | calls from a first round at 10 µM; hits with a dose series show EC50 in µM;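 active means over half of the reporter light lost at 10 µM or EC50 under 50 µM; inactive means the rest and hits that failed the dose series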;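 further: actives suppress MT1-MMP promoter-driven transcription so potencies describe inhibitors; HT1080 fibrosarcoma cells; overnight exposure; toxic or luciferase-blocking compounds were not removed from the actives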
WNV NS2B-NS3 inh – inhibitors of WNV NS2B-NS3 protease, primary screen, biochemical, fluorogenic substrate; Genome polyprotein (West Nile virus), P06935; fluorogenic substrate Ex360/Em465; hits give low values; actives 0.18% (n = 65,000); z-score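 (tested at a level between 10 and 100 µM)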;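 active means z-score at -3 or under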;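 further: score is relative to mean and spread of the compound wells of a plate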
Target sequence (P06935 1371-1501 limits assumed): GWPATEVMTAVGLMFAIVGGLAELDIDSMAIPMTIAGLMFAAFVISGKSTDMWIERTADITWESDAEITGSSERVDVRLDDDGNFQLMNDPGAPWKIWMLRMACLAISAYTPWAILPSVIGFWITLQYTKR
Target sequence (P06935 1502-1679 limits assumed): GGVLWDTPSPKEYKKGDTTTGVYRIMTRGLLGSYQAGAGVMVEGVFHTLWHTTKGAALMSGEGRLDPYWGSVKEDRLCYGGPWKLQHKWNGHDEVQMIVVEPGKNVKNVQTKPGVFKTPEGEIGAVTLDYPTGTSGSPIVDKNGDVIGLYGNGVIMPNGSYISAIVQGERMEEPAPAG
Hsc70 ATP site – Hsc70 inhibitors, probe displacement, primary screen, biochemical, fluorescence polarization (AID 568); Heat shock cognate 71 kDa protein (Homo sapiens); Hsc70 fluorescence polarization, probe displacement; higher % means a stronger effect; strong numbers were not always called active; displacement, % at 20 µM, or IC50 in µM where a hit was titrated; 83,000 tested, under 10 active;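 active means displacement above 50% without optical interference and an IC50 on retest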;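 further: ATPase domain with a fluorescein-tagged ATP probe; 0% = vehicle and 100% = excess ADP; read after one hour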
An asterisk follows results filed as active; i = inactive; · = not tested or not shown; + = active, no number.

SMILES | MT1-MMP reporter | WNV NS2B-NS3 inh | Hsc70 ATP site
CC(C)(C)NCc1cc2ccccc2[nH]c1=O | i | 0.74 | 3.6%
Cc1nc2cc(C(=O)NCCN3CCOCC3)ccc2n1-c1ccc(F)cc1F | i | -0.22 | -6.0%
CCCC(=O)NC(C)C(c1cccs1)N1CCN(C)CC1 (stereo unspecified) | i | 1.1 | -5.9%
O=C(NC1CCCCC1)N(CCO)Cc1cc2cc3c(cc2[nH]c1=O)OCCO3 | i | · | 2.4%
O=C(CSc1nc2c([nH]c3ccccc32)c(=O)n1-c1cccc(Cl)c1)N1CCOCC1 | i | -0.56 | 1.4%
CN(C)S(=O)(=O)c1ccc(C(=O)N2CCCC2c2nc3ccccc3s2)cc1 (stereo unspecified) | i | 0.95 | -0.1%
O=C(NC1CCCCC1)c1ccc(S(=O)(=O)NCc2ccco2)cc1 | i | -0.85 | -3.1%
Cc1cccc2[nH]c(-c3ccc(NC(=O)c4ccco4)cc3)nc12 | i | -1.3 | -4.2%
O=C(Nc1ccc(F)cc1Cl)c1ccc2c(=O)n3c(nc2c1)CCCCC3 | i | -0.62 | -1.6%
Cn1c(=O)n(-c2cccc(Cl)c2)c(=O)n1C | i | -0.07 | -1.3%
Cc1noc(/C=C/c2ccco2)c1S(=O)(=O)N1CCC(C(=O)N2CCc3ccccc3C2)CC1 | i | -0.75 | -58%
COc1ccc2cc3c(N)c(C(=O)NCc4ccco4)sc3nc2c1 | i | 2.5 | -8.6%
C=CCOc1cccc(C2/C(=C(/O)c3ccc(Cl)cc3)C(=O)C(=O)N2CCN2CCOCC2)c1 (stereo unspecified) | i | 1.5 | -1.4%
COc1cccc(-c2nn(C)c3sc(C(=O)NCc4ccc(C)o4)cc23)c1 | i | -0.7 | -3.2%
Cc1nonc1NC(=O)CSc1nnc(-c2ccoc2C)n1CC(C)C | i | -0.38 | 3.1%
O=C1CN=C(Nc2cccc(C(F)(F)F)c2)N1C1CCCC1 | i | 0.95 | 5.8%
O=C(NCCN1CCOCC1)c1cn(CCc2ccccc2)nn1 | i | 2.6 | 0.8%
c1ccc(-c2ccc(OCCOCCn3cncn3)cc2)cc1 | i | 0.52 | 1.4%
Cc1cc(C(=O)Nc2ccc3c(c2)OCCO3)co1 | i | -0.66 | 0.5%
N#Cc1cc2c(nc1SCC(=O)Nc1sc3c(c1C#N)CCC3)CCCC2 | i | · | 2.6%
CCOC(=O)c1cccc(NC(=O)c2cnc3ccccc3n2)c1 | i | -0.84 | 2.6%
O=C(O)c1ccc2[nH]c3c(c2c1)CSCC3 | i | -0.27 | 6.9%
CCn1c(SCC(=O)Nc2cc(NC(C)=O)ccc2OC)nnc1-c1ccncc1 | i | -1.3 | 5.6%
CC12CCC(c3c(C(=O)O)nn(-c4ccccc4)c31)C2(C)C (stereo unspecified) | i | 1.9 | -0.2%
COc1cccc(Nc2nnc(SCC(=O)N3CCOCC3)s2)c1 | i | -0.25 | -6.8%

The final 4 compounds of the part above lead into the next.
SMILES | MT1-MMP reporter | WNV NS2B-NS3 inh | Hsc70 ATP site
O=C(O)c1ccc2[nH]c3c(c2c1)CSCC3 | i | -0.27 | 6.9%
CCn1c(SCC(=O)Nc2cc(NC(C)=O)ccc2OC)nnc1-c1ccncc1 | i | -1.3 | 5.6%
CC12CCC(c3c(C(=O)O)nn(-c4ccccc4)c31)C2(C)C (stereo unspecified) | i | 1.9 | -0.2%
COc1cccc(Nc2nnc(SCC(=O)N3CCOCC3)s2)c1 | i | -0.25 | -6.8%
O=C1CCCC/C1=C\Nc1ccccc1C(=O)O | i | -1.2 | 2.4%
O=C(Nc1c(C(=O)Nc2cccc3ccccc23)cnn1-c1ccccc1)c1ccco1 | i | · | -4.5%
O=S(=O)(c1ccc2c(c1)OCCO2)N1CCN(c2nc3ccccc3s2)CC1 | i | 0.5 | -1.9%
Cc1cccc(C)c1NC(=O)CN(C)CC(=O)Nc1ccccc1Br | i | · | -1.2%
COc1ccc(N2C(=O)CC(NC3CCCCNC3=O)C2=O)cc1 (stereo unspecified) | i | · | -5.3%
CN(C)CC1CCCCC1C1(O)c2ccccc2CSc2sccc21 (stereo unspecified) | i | · | -0.2%
COc1ccc(CN2CCCC(C(=O)N(C)Cc3ccccc3)C2)cc1OC (stereo unspecified) | i | -1.1 | -5.6%
Cc1ccc(Cn2c(SCC(=O)Nc3cccc(C)n3)nc3c2c(=O)n(C)c(=O)n3C)cc1 | i | -0.07 | -2.6%
O=C(OC(C(=O)NCc1cccs1)c1ccccn1)c1cccs1 (stereo unspecified) | i | -0.71 | 1.1%
Cc1cccc2nc(CSc3nc4[nH]ncc4c(=O)n3-c3ccccc3Cl)cc(=O)n12 | i | · | 2.4%
COCCCN1C(=O)C(O)=C(C(=O)c2ccc(C)o2)C1c1cccc(Br)c1 (stereo unspecified) | i | 0.55 | 2.1%
CCNc1nc(NC(C)(C)C)nc(N2CCCC2)n1 | i | · | 1.3%
CN(C)CCCN=Cc1c(O)n(Cc2ccccc2)c(=O)c2ccccc12 | i | · | -2.2%
CSc1cccc(NC(=O)CSc2ccc(Cl)cc2)c1 | i | · | -3.5%
CC(=O)c1c(C)oc2ccc(NS(=O)(=O)c3ccc(O)c(C(=O)O)c3)cc12 | i | 0.19 | -5.1%
COC(=O)c1cc(OC)c(OC)cc1NC(=O)C1CCCO1 (stereo unspecified) | i | -0.42 | -2.7%
O=C(Nc1cccc(F)c1)C1CCN(C(=O)c2ccc(Br)cc2)CC1 | i | · | 2.1%
COc1ccc2nc(NCCCO)[nH]c2c1 | i | · | -3.5%
CCOC(=O)C1=C(C)NC(C)=C(C(=O)OC)C1c1cccc([N+](=O)[O-])c1 (stereo unspecified) | i | -0.51 | -2.8%
COc1ccc2c(c1OC)CN(C)CCc1cc3c(cc1C(O)C2)OCO3 (stereo unspecified) | i | 1.9 | 0.8%
Nc1cccc2c1C(=O)N(c1ccccc1)C2=O | i | -0.07 | 58%
Cc1ccc(S(=O)(=O)N(C)c2nonc2C)cc1 | i | -1.9 | 5.9%
Cc1ccc(S(=O)(=O)N2C(=O)CCC2C(=O)N2CCN(C)CC2)cc1 (stereo unspecified) | i | -0.37 | 2.6%
O=C(Nc1ccc2c(c1)CCC2)C1CCCO1 (stereo unspecified) | i | -0.52 | 0.3%
CCOC(=O)c1ccc(N2C(=O)CC(N3CCC(C(N)=O)(N4CCCCC4)CC3)C2=O)cc1 (stereo unspecified) | i | · | -3.0%

Overlap with the part before: five entries, followed by the next part.
SMILES | MT1-MMP reporter | WNV NS2B-NS3 inh | Hsc70 ATP site
Nc1cccc2c1C(=O)N(c1ccccc1)C2=O | i | -0.07 | 58%
Cc1ccc(S(=O)(=O)N(C)c2nonc2C)cc1 | i | -1.9 | 5.9%
Cc1ccc(S(=O)(=O)N2C(=O)CCC2C(=O)N2CCN(C)CC2)cc1 (stereo unspecified) | i | -0.37 | 2.6%
O=C(Nc1ccc2c(c1)CCC2)C1CCCO1 (stereo unspecified) | i | -0.52 | 0.3%
CCOC(=O)c1ccc(N2C(=O)CC(N3CCC(C(N)=O)(N4CCCCC4)CC3)C2=O)cc1 (stereo unspecified) | i | · | -3.0%
CCOC(=O)c1sc(=S)n(-c2cc(OC)ccc2OC)c1N | i | -0.42 | 1.7%
C=CCNC(=O)C1CC(=O)N(c2ccc(OCC(=O)Nc3cccc(OC)c3)cc2)C1 (stereo unspecified) | i | -0.03 | -1.1%
COc1ccccc1Nc1nc(-c2cccs2)cs1 | i | -0.49 | -5.6%
COCCn1c(SCC(=O)c2cccc(OC)c2)nnc1-c1ccco1 | i | -1.6 | -8.1%
Cc1cc(C=O)c2c(c1)C=CC1(Oc3ccccc3C(=O)N1C)O2 (stereo unspecified) | i | · | 8.8%
Cc1cc(C)cc(Nc2ncc3c(n2)CC(c2ccco2)CC3=O)c1 (stereo unspecified) | i | -0.51 | 0.7%
Cc1ccc(C(=O)N/N=C\c2ccc[nH]2)cn1 | i | · | 1.5%
CCC(=O)Nc1nc2ccc3nc(C)sc3c2s1 | i | -0.18 | 0.1%
O=C(Cc1ccccc1)N/N=C/c1ccc(OC(=O)/C=C\c2ccco2)cc1 | i | · | 1.5%
c1ccc(C(c2nnnn2Cc2cccs2)N2CCN(C3CCCC3)CC2)cc1 (stereo unspecified) | i | 0.04 | -2.6%
CCN1C(=O)/C(=C2/Sc3ccc(OC)cc3N2C)SC1=Nc1cccc(O)c1 | i | 0.51 | -29%
CCS(=O)(=O)Nc1ccc(C(=O)c2ccccc2)cc1 | i | · | -4.7%
CCN(CCCNC(=O)CNC(=O)Cn1cnc2ccccc2c1=O)c1ccccc1 | i | -0.27 | 1.7%
c1ccc2c(c1)OCC(c1nn3cnnc3s1)O2 (stereo unspecified) | i | -0.38 | -6.2%
CCc1c(C)sc(NC(=O)C2CCCCC2C(=O)O)c1C(N)=O (stereo unspecified) | i | 0.1 | 0.4%
O=C(Nc1ccc(S(=O)(=O)N2CCOCC2)cc1)c1ccc(Cl)s1 | i | -1.1 | 6.1%
O=S(=O)(NCCNS(=O)(=O)c1ccc(F)cc1)c1ccc(F)cc1 | i | · | -3.6%
O=C(CCN1CCN(c2ccc(Cl)cc2)CC1)Nc1ccccc1F | i | -1.4 | -0.9%
CS(=O)(=O)N1CCC(C(=O)Nc2ccc(Cl)c(C(F)(F)F)c2)CC1 | i | -0.67 | 8.9%
CC(=O)c1ccc(N2CCN(C(=O)c3cc(C)on3)CC2)cc1 | i | -0.6 | 0.1%
Cc1ccc(NS(=O)(=O)c2cccc(C(=O)O)c2)c(C)c1 | i | 0.97 | 1.3%
CCn1cc(C(=O)OCC(=O)OC2CC(C)CCC2C(C)C)c(=O)c2ccc(C)nc21 (stereo unspecified) | i | -0.07 | -1.9%
COC(=O)c1ccccc1NC(=O)CSc1nnc(-c2ccc(C)cc2)o1 | i | · | 1.7%
CCOC(=O)Cc1cn2c(=O)cc(CSCC(=O)Nc3ccc(C)c(C)c3)nc2s1 | i | -1.6 | 2.1%
Cc1cc(N2CCN(c3ccccc3)CC2)n2c(n1)nc1ccccc12 | i | -0.11 | -14%
Next part.
SMILES | MT1-MMP reporter | WNV NS2B-NS3 inh | Hsc70 ATP site
O=C(CSc1nnc(CNc2ccc(F)cc2)o1)OC1CCCCC1 | i | · | 1.2%
O=C(CCNS(=O)(=O)c1cccs1)NCc1ccco1 | i | 0.37 | -1.0%
c1ccc(-c2noc(-c3ccc4ccccc4c3)n2)cc1 | + | 0.78 | -7.4%
Cc1cc2ccccc2c(=O)n1CC(=O)NCC(=O)N1CCN(c2ccccc2F)CC1 | i | 0.11 | 1.9%
COc1ccccc1NC(=O)C(O)C(O)C(=O)Nc1ccccc1OC (stereo unspecified) | i | 0.52 | 0.8%
Cc1cc(NC(=O)Cn2nc(C(F)(F)F)c3c2CCCC3)no1 | i | -0.39 | 0.8%
O=C(CSc1ccc(-c2ccc(F)cc2)nn1)N1CCCCC1 | i | -1.3 | -8.2%
Cc1cccc(-n2nnc(C(=O)NCc3ccc4c(c3)OCO4)c2N)c1 | i | 1.5 | -3.9%
Cc1c(C(=O)N2CCCC2)oc2c1-c1[nH]ncc1CC2 | i | 0.82 | 0.1%
O=C(NCCc1ccccc1)C1CCN(S(=O)(=O)c2cccnc2)CC1 | i | -0.54 | 2.6%
CCOC(=O)c1cc(-c2ccc(C#N)cc2)nc2c1c(C)nn2CCC#N | i | · | -3.1%
CCC(=O)N1CCc2cc(S(=O)(=O)NCCC(=O)Nc3ccccc3C)ccc21 | i | -0.06 | 6.8%
COCC(=O)NC1CCN(C(=O)NCc2ccccc2)CC1 | i | 1.1 | -1.9%
CCCc1ncc(C(O)c2ccc(OC)cc2)n1C (stereo unspecified) | i | 1.1 | 4.7%
COc1ccc(CNC(=O)c2cc(-c3cccs3)on2)cc1 | i | -0.99 | -15%
CCOC(=O)c1sc2nc(C)c3c(c2c1N)CC(C)(C)OC3 | i | · | -0.8%
CC(C)(C#CCN1CCCC1)OCCC#N | i | 1.3 | -4.4%
CC1CCCCC1NC(=O)c1cc2c(s1)CS(=O)(=O)C2 (stereo unspecified) | i | 0.28 | -7.4%
Cc1cccc(NC(=O)CSc2nnc(CCCCCNC(=O)OC(C)(C)C)o2)c1C | i | -0.9 | 3.8%
CC1CCCC(NC(=O)COC(=O)c2ccc3ccccc3n2)C1C (stereo unspecified) | i | · | -24%
COC(=O)C(F)(F)Sc1c(C)[nH]c2ccccc12 | i | -0.07 | -8.7%
CCC(C)Sc1nc2ccccc2n1CC(=O)O (stereo unspecified) | i | · | -2.7%
O=C(Cn1cnc2ccccc2c1=O)Nc1ccc2c(c1)OCCO2 | i | 0.18 | 2.9%
CCOC(=O)C(CCCOc1ccc(C)cc1)C(=O)OCC | i | · | 1.1%
CC(C)(C)NC(=O)C(OC(=O)Cn1nnc(-c2ccc(F)cc2)n1)c1ccncc1 (stereo unspecified) | i | -0.19 | 0.4%
O=c1sc2ccccc2n1CCOc1ccccc1 | i | 0.04 | 5.6%
CCOC(=O)Cc1cc(=O)n2[nH]c(C)c(-c3ccccc3)c2n1 | i | 0.64 | -5.9%
CC(=O)Nc1ccc(S(=O)(=O)N2CCCC2C(=O)O)cc1 (stereo unspecified) | i | -0.37 | -6.8%
Cc1cc(=O)n2ncnc2n1COCCO | i | 0.92 | -1.6%
